Compound activity as filed in PubChem BioAssay.
YopH PTP inh = blocks Yersinia enterocolitica YopH tyrosine phosphatase; fluorescence Ex485/Em525; inhibition, %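 (about 10 µM by stock and volumes)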; hit rate 0.16% among 140,000; AID 898;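 active = inhibition of 50% or more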;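 also: controls were vehicle for no effect and minimum signal wells for full effect; inactives centre near -20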
Mtb bLac sens = beta-lactam sensitization of Mtb H37Rv | M. tuberculosis H37Rv growth with meropenem, percent inhibition; hits of this screen are not shown here | inhibition, % at 25 µM | hit rate 0.27% among 330,000;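 active = about 74% or more and at least 40 points above the plate without the antibiotic, then above 30% in a dose series; inconclusive = first-round hits that could not be retested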;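 also: growth measured after seven days incubation then overnight dye step; 0% = bacteria only wells and 100% = bacteria with antibiotic; twin plates without the antibiotic show which effects depend on it; some results filed as inactive read as strong as hits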
Mtb growth = M. tuberculosis H37Rv growth inhibitors, H37Rv strain (AID 1626); M. tuberculosis H37Rv growth inhibition; higher % means a stronger effect; one-dose inhibition, % at 10 µM; IC50 in µM for titrated hits; hit rate 0.95% among 220,000;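 active = confirmed in a dose series; inconclusive = inhibition above 80% but not taken into the dose series; inactive = below 80% or under 30% at every dose of the series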;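 also: bacteria incubated seven days before Alamar blue readout; 0% = bacteria only wells and 100% = bacteria with antibiotic wells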
Arbovirus anti = blocks arbovirus infection; hit rate 0.37% among 200,000; inhibition, % at 10 µM; arbovirus infection cell-based antiviral screen;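 active = inhibition from about 30%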;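 also: bluetongue infection of BSR cells; cell survival read as ATP light after 72 h; 0% = infected wells without compound and 100% = uninfected wells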
RecA intein inh = blocks M. tuberculosis RecA intein splicing; inhibition, %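 (about 9 µM by stock and volumes)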; hit rate 0.75% among 290,000; cell-free RecA intein splicing, fluorescence; P9WHJ3; in the data active = inhibition above about 30%; inconclusive = no clear call, values can overlap the other calls;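 also: 0% = vehicle wells and 100% = reference inhibitor control wells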
Target sequence (P9WHJ3 whole entry, looked up): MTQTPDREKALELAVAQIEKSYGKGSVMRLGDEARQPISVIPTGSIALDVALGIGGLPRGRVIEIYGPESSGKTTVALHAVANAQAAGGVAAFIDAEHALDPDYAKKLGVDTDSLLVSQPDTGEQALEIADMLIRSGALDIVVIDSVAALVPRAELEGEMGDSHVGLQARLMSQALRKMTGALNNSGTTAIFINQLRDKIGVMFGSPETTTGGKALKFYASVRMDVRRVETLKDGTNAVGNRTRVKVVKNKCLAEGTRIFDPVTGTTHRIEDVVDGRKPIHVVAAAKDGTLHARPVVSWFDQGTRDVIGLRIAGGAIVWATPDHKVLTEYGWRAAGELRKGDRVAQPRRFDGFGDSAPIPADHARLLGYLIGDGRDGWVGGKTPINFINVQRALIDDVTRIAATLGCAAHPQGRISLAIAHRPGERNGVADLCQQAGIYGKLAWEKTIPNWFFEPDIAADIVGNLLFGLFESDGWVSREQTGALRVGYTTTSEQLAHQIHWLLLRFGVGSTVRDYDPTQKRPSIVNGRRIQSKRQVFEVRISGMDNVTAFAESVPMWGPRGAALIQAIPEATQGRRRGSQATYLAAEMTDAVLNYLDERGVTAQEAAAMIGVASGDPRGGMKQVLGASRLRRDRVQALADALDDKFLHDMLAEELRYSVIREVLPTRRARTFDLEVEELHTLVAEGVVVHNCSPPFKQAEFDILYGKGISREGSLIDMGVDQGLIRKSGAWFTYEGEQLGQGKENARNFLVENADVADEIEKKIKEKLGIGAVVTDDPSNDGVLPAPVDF
Arbovirus anti repeat = further read-out of Arbovirus anti, marked with its call; inhibition, %; measured here: 10K subset replicate screen; many hits read low in the repeat;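 first of two repeat runs on a subset; 0% = infected and 100% = uninfected wells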
* = called active by the depositor; ? = inconclusive; / = no result given. An excerpt; count on the stated rates, not on these rows.

SMILES	YopH PTP inh	Mtb bLac sens	Mtb growth	Arbovirus anti	RecA intein inh	others
CCOC(=O)c1ccc(NC(=O)c2ccc3c(c2)OCO3)cc1	12	6	-1%	0	2.4
COC(=O)C(=Nc1ccccc1)/C(C(=O)C(=O)N(C)c1ccccc1)=C(\O)c1ccccc1	/	-10	2%	/	0.1
Cc1noc(C)c1S(=O)(=O)N1CCN(c2ccc([N+](=O)[O-])cc2)CC1	/	18	/	/	-0.5
CC(C)CC12CN3CCN(CC(C3)C1O)C2 (centres undefined)	-9	-6	0%	2	-0.5
COC(=O)c1ccc(N=Cc2c(C(F)(F)F)[nH][nH]c2=O)cc1	/	87	88%	-7	-2.6
COc1ccccc1NC(=O)NCC(=O)Nc1c(C)cccc1C	/	-3	-7%	-5	-2.1
CCCC(=O)n1nc(-c2ccco2)nc1SCc1ccccc1	-18	-2	7%	-3	4.8
Cc1ccccc1OCCn1c(C)nc2ccccc21	/	-5	/	/	1.5
O=c1c2c3n(c(=O)nc2[nH]n1-c1ccccc1)CCCCC3	-29	10	-3%	3	-0.1
COc1ccc(NC(=O)CC2SC(=Nc3ccccc3)NC2=O)cc1 (centres undefined)	-36	-8	-3%	-3	3.5
Cc1ccc(C(=O)Nc2ccccc2N2CCCC2)cc1	/	48	/	/	-0.5
COc1ccc(NC(=O)C(=O)NCC2CCCN2S(=O)(=O)c2cccs2)cc1 (centres undefined)	/	-3	/	/	-3.7
CC(=O)c1cccc(NC(=O)c2onc(C)c2Cl)c1	-42	-3	-4%	2	0.3
Cc1cc(C)nc(SCC(=O)Nc2ccc(S(=O)(=O)Nc3nccs3)cc2)n1	1	-2	-1%	12	-7.5
COc1ccccc1C(=O)N1CCCC1(C#N)c1ccccc1 (centres undefined)	-5	-19	-3%	7	-1.7
COc1ccc(S(N)(=O)=O)cc1C(=O)NCCCN1CCN(c2ccccc2OC)CC1	-30	-8	-6%	1	-0.6
Cc1nn(C)cc1C(=O)NNC(=S)Nc1ccccc1	-40	-6	-8%	1	-2.3
Cc1ccc(NC(=S)N/C(=N/S(=O)(=O)c2ccccc2)c2ccccc2)cc1	-7	-6	7%	10	5.8
CC(CC(=O)NC1CCSC1=O)c1ccccc1 (centres undefined)	1	-6	-2%	2	-0.4	Arbovirus anti repeat=0
Cc1cc(OCc2ccc(F)cc2)nc(-c2ccccc2O)n1	0	-10	2%	20	-2.6	Arbovirus anti repeat=7
CC(Sc1nnc(-c2ccccc2)c(-c2ccccc2)n1)C(=O)N1CCc2ccccc21 (centres undefined)	-22	4	4%	9	-1.7
Cc1oc(-c2ccccc2Cl)nc1CS(=O)(=O)CC(=O)NCCN1CCOCC1	/	-7	/	/	-0.4
COc1cccc(-c2nnc(NC(=O)c3ccc(S(=O)(=O)N(CC(C)C)CC(C)C)cc3)o2)c1	-41	94	/	-36	/
COc1cccc(N(C(=O)c2ccco2)C(C(=O)NC2CCCC2)c2ccc(N(C)C)cc2)c1 (centres undefined)	-55	1	6%	0	2.7
COc1cccc(NC(=O)CSc2ccc3nnc(-c4ccncc4)n3n2)c1	-49	3	-3%	3	0.6

Next section; it opens with the three that closed the last part.
SMILES	YopH PTP inh	Mtb bLac sens	Mtb growth	Arbovirus anti	RecA intein inh	others
COc1cccc(-c2nnc(NC(=O)c3ccc(S(=O)(=O)N(CC(C)C)CC(C)C)cc3)o2)c1	-41	94	/	-36	/
COc1cccc(N(C(=O)c2ccco2)C(C(=O)NC2CCCC2)c2ccc(N(C)C)cc2)c1 (centres undefined)	-55	1	6%	0	2.7
COc1cccc(NC(=O)CSc2ccc3nnc(-c4ccncc4)n3n2)c1	-49	3	-3%	3	0.6
CCOC(=O)c1cnc2c(cnn2C)c1Cl	/	-2	1%	9	5.3
O=C(N[C@H]1CP(=O)(Oc2ccccc2)O[C@H](COCc2ccccc2)[C@H]1O)C(Cl)(Cl)Cl (some centres undefined)	/	-9	3%	/	-0.1
Clc1ccccc1CN1CCN(/N=C/C=C\c2ccco2)CC1	/	-4	-7%	-25	4.6
N=C1/C(=C\c2ccc(SCc3ccccc3)o2)C(=O)N=C2SC(CC(=O)N3CCOCC3)=NN12	/	1	-6%	/	-1.6
Cc1cc(-c2ccccc2)c2ccc(NC(=O)C(C)(C)C)nc2n1	/	6	/	/	1.0
Nc1sc2c(c1C(=O)NC1CCS(=O)(=O)C1)CCC2 (centres undefined)	-20	2	-6%	11	-2.0
COC(=O)c1c(-c2ccc(Br)cc2)csc1NC(=O)Cc1ccc(OC)c(OC)c1	-18	-2	22%	12	1.3
CCCc1ccc2oc(C(=O)N3CCN(CC(=O)NC(C)C)CC3)c(C)c2c1	/	4	/	/	4.1
COc1ccc(OCCOC(=O)CN2C(=O)NC3(CCCC3)C2=O)cc1	/	-10	/	/	-5.5
CC(C)=CCCC(C)CN1CCC(O)CC1 (centres undefined)	4	-9	-9%	-4	0.2
CCCCC(CC)C(=O)Nc1ccc(S(=O)(=O)Nc2nccs2)cc1 (centres undefined)	/	2	0%	/	-0.6
Cc1ccc(C2CC(C(F)F)n3ncc(C(=O)Nc4cnn(Cc5ccccc5C)c4)c3N2)cc1 (centres undefined)	-31	70	76%	-23	-1.2
CCC(=O)N1CCc2cc(S(=O)(=O)CCC(=O)NC3CCCCC3)ccc21	/	0	/	/	-1.1
CNC(=O)N(C1=NCC(C)S1)c1ccc(F)cc1F (centres undefined)	-47	-6	-4%	-15	3.9
COc1ccc(OC)c(CC(NC(C)=O)C(=O)NC2CCN(c3nc(OC)nc(OC)n3)CC2)c1 (centres undefined)	/	-1	-7%	6	-2.2
COc1ccc(NC(=O)CC(Cc2ccccc2)C(=O)O)cc1 (centres undefined)	-16	-21	-9%	4	0.7
COC(=O)c1cc(NC(=O)CSC2=NCCS2)cc(C(=O)OC)c1	/	-6	-1%	-7	5.7
CCn1c2ccccc2c2cc(NC(=O)CC(C)=O)ccc21	-15	0	5%	8	0.6
CCOc1cc(C2C3=C(CCCC3=O)N(CCC(=O)O)C3=C2C(=O)CCC3)ccc1OS(=O)(=O)c1ccc(C)cc1	-7	4	5%	-4	-375
O=C(CN1C(=O)/C(=C/c2ccco2)SC1=S)Nc1ccc(C(=O)O)c(O)c1	/	7	/	/	14
CCOc1cc(C(=O)Nc2ccc(S(=O)(=O)Nc3nnc(CC)s3)cc2)cc(OCC)c1OCC	/	6	/	/	0.3
CC(=O)Nc1ccc(Nc2cc(N(C)C)c3nonc3c2[N+](=O)[O-])cc1	/	7	/	/	-0.1
NC(=O)c1ccc[n+](Cc2cccc3ccccc23)c1	-23	5	11%	-4	-1.8
CC(C)(C)c1cc(NC(=O)Nc2ccccc2)no1	/	0	/	/	-1.1
Nc1nc(N)c2cc(Sc3ccc4ccccc4c3)ccc2n1	/	99	1.6µM*	/	7.9

Reprinted at random: 6 entries already listed, in no set order.
SMILES	YopH PTP inh	Mtb bLac sens	Mtb growth	Arbovirus anti	RecA intein inh	others
CC(=O)Nc1ccc(Nc2cc(N(C)C)c3nonc3c2[N+](=O)[O-])cc1	/	7	/	/	-0.1
COc1ccc(OC)c(CC(NC(C)=O)C(=O)NC2CCN(c3nc(OC)nc(OC)n3)CC2)c1 (centres undefined)	/	-1	-7%	6	-2.2
COc1ccc(OCCOC(=O)CN2C(=O)NC3(CCCC3)C2=O)cc1	/	-10	/	/	-5.5
CC(C)(C)c1cc(NC(=O)Nc2ccccc2)no1	/	0	/	/	-1.1
Cc1cc(-c2ccccc2)c2ccc(NC(=O)C(C)(C)C)nc2n1	/	6	/	/	1.0
CCCCC(CC)C(=O)Nc1ccc(S(=O)(=O)Nc2nccs2)cc1 (centres undefined)	/	2	0%	/	-0.6

By substructure: the entries above with a tert-butyl group
SMILES	YopH PTP inh	Mtb bLac sens	Mtb growth	Arbovirus anti	RecA intein inh	others
Cc1cc(-c2ccccc2)c2ccc(NC(=O)C(C)(C)C)nc2n1	/	6	/	/	1.0
CC(C)(C)c1cc(NC(=O)Nc2ccccc2)no1	/	0	/	/	-1.1

Following part:
SMILES	YopH PTP inh	Mtb bLac sens	Mtb growth	Arbovirus anti	RecA intein inh	others
CCCCCCn1c(SCCOC)nc2c1c(=O)[nH]c(=O)n2C	/	0	-4%	3	1.7	Arbovirus anti repeat=1
O=C(Nc1cccc(-c2csc(Nc3cccc(C(F)(F)F)c3)n2)c1)c1cc([N+](=O)[O-])cc(C(F)(F)F)c1	/	-5	-9%	/	-0.6
O=C(Nc1cccn(Cc2c(Cl)cccc2Cl)c1=O)c1ccc(Cl)cc1Cl	-50	1	3%	19	5.7
Cc1ccc(CN2C(=O)CNC2=S)cc1	/	-2	6%	1	-12
COC(=O)COc1cccc(NC(=O)c2cc(OC)cc(OC)c2)c1	/	44	8%	-5	-0.4
N[C@@H](Cc1c[nH]c2ccccc12)c1nnc(SCc2ccccc2)o1	-32	3	-11%	2	-7.6
CC1=C(C(=O)OCc2ccc3c(c2)OCO3)C(c2ccccc2OCc2ccccc2)NC(=O)N1 (centres undefined)	-14	-1	6%	11	22
COc1ccc(N(CC(=O)Nc2ccc(S(=O)(=O)N3CCCC3)cc2)S(C)(=O)=O)cc1OC	-8	?	-6%	-1	3.2
CC(=O)Oc1ccc(-c2ccc(C(=O)OCC(=O)N(C)CC(=O)Nc3ccccc3Cl)cc2)cc1	/	-9	/	/	1.8
C=CCNC(=O)C1CC(=O)N(c2ccc(OCC(=O)Nc3ccc(Cl)c(C(F)(F)F)c3)cc2)C1 (centres undefined)	0	0	-9%	-4	/
CCN1C(=O)[C@H]2[C@@H](c3ccc(-c4ccc(F)cc4)c(OC)c3)N[C@@](C)(C(=O)OC)[C@H]2C1=O	/	-3	/	/	3.4
CC1(C)Cc2cccc(OCC(=O)N3CCN(c4ccccc4F)CC3)c2O1	/	-9	/	/	3.3
O=C(CN(C(=O)C1COc2ccccc2O1)c1ccccc1)NCC1CCCO1 (centres undefined)	-36	4	-6%	-1	0.7
Cc1ccc(OCCNC(=O)Cn2cnc3c(=O)n(C)c(=O)n(C)c32)cc1C	-34	-15	1%	0	1.8
O=C(NCc1ccncc1)c1cc(-c2ccc(Cl)cc2)oc1C(F)(F)F	/	2	14%	/	1.5
COc1ccccc1/C=C/C1(C(=O)NC2CCCC2)CC(=O)N1c1ccccc1 (centres undefined)	/	2	/	/	0.1
CCc1nnc(NC(=O)CN2CCN(Cc3ccccc3C)CC2)s1	/	-3	/	/	0.2
O=C(COC(=O)c1cccc(S(=O)(=O)N2CCOCC2)c1)Nc1ccc2c(c1)OCO2	-30	-4	-14%	-7	-3.1

3 compounds already listed, sorted by count of non-hydrogen atoms, rising.
SMILES	YopH PTP inh	Mtb bLac sens	Mtb growth	Arbovirus anti	RecA intein inh	others
Cc1ccc(C(=O)Nc2ccccc2N2CCCC2)cc1	/	48	/	/	-0.5
COc1ccc(OCCOC(=O)CN2C(=O)NC3(CCCC3)C2=O)cc1	/	-10	/	/	-5.5
O=C(CN1C(=O)/C(=C/c2ccco2)SC1=S)Nc1ccc(C(=O)O)c(O)c1	/	7	/	/	14
